# Source: PubChem (several laboratories)
# Bead autofluor = counter-screen for toxin protease inhibitors: compound fluorescence; compound autofluorescence counterscreen, microsphere flow cytometry; hits give high values; fluorescence intensity (no concentration beside the values); actives 3.1% (n = 360,000); AID 624483;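 active = at least 3 SD above the mean of all compounds, about 16000 in these data; inconclusive = too few beads counted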;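 also: 100 nL of 1 mM stock went into each well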
# ugtP null kill = kills S. aureus RN4220 lacking UgtP. actives 0.54% (n = 330,000). growth inhibition, % (test concentration not listed). S. aureus RN4220 ugtP deletion, OD600 growth, 16 h; some inactives read as strong as hits;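 active = z-score under -3 and OD600 up to 0.15 on both plates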;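 also: plate controls were untreated wells for no effect and antibiotic for full effect; wells of about 80 µL received 100 nL stock; the first replicate is given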
# Mtb hypoxia rep = Mtb hypoxia fluorescent reporter inhibition; M. tuberculosis hypoxia-regulated fluorescent reporter, fluorescence; fluorescence inhibition, % (concentration not given with the values); actives 0.1% (n = 300,000);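 active = 35 to 45% if threefold the growth effect, above 45% if 1.5-fold the growth effect; inactive = the rest, general growth blockers included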;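 also: wells of about 50 µL received 100 nL stock; 0% = vehicle wells and 100% = reference inhibitor wells; whole bacteria with a GFP reporter of the hypoxia response; strong numbers were not always called active; many hits fall short of the cut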
# Sa RN4220 lethal = kills Staphylococcus aureus RN4220 | AID 1259311 | actives 0.33% (n = 330,000) | S. aureus RN4220 growth, OD600, 16 h | inhibition, % (no concentration beside the values);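 active = z-score of -3 or lower and OD600 up to 0.18 on both plates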;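 also: plate controls were untreated cells for no effect and reference antibiotic for full effect; stock transfer was 100 nL into about 80 µL; one replicate is shown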
# BJeLR lethal = kills HRASV12-expressing BJeLR cells; BJeLR (HRASV12) viability, CellTiter-Glo ATP luminescence, 48 h; reference of the scale not given here; inhibition, % (test concentration not listed); actives 0.17% (n = 300,000);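 active = replicate mean above 50%; inconclusive = above 50% but judged a plate artefact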;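 also: 50 nL library stock added to about 25 µL; numbers are from one replicate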
# PrP UTR inh = suppresses PrP 5' UTR mRNA reporter expression; cell-based PrP 5' UTR mRNA reporter, plate reader; inhibition, % (concentration not given with the values); actives 0.35% (n = 340,000);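 active = every replicate at 50% or more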;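 also: 0 = median of the neutral control wells; tested in H4 reporter cells; numbers are from one replicate; inactives centre near -14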
# Mtb hypoxia rep growth = second read-out of Mtb hypoxia rep, no call of its own (marks repeat the call); growth inhibition, %; measured here: M. tuberculosis growth (absorbance);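 0% = vehicle and 100% = reference antibiotic; read after six days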
# * hit, by the source's call; ? = inconclusive; . = not tested or not shown; & = joins results of further samples.
compound	Bead autofluor	ugtP null kill	Mtb hypoxia rep	Mtb hypoxia rep growth	Sa RN4220 lethal	BJeLR lethal	PrP UTR inh
CC(C)(C)NC(=O)CC1C[C@H](C(=O)N2CCOCC2)[C@@]2(CCC3CCCC3)c3[nH]c4ccccc4c3CCN2C1=O (stereo partly drawn)	2867	-13	-7	3	-4.1	.	-4
Clc1ccc(CSc2nnc(-c3ccncc3)o2)cc1	9191	7	.	.	8.6	7	-12
COc1ccc(OC)c(N(CC(=O)NC2CCCCCC2)S(=O)(=O)c2ccc(C)cc2)c1	6146	-10	-6	-2	-1.8	7	-9
CC(=O)N1CCc2cc(S(=O)(=O)CCC(=O)N3CCN(c4cc(C)ccc4C)CC3)ccc21	4370	5	-4	0	6.0	2	-3
CCc1cc(=O)oc2c(C)c(OC(C)C(=O)NCC3CCC(C(=O)O)CC3)ccc12 (stereo not drawn)	5369	9	.	.	-0.3	-7	-4
CCn1nnc(NC(=O)c2cc3ccccc3o2)n1	21445*	-1	3	8	2.3	11	-42
O=S(=O)(Cc1ccccc1)NCCc1cccc(Cl)c1	4289	1	13	5	3.9	2	-33
O=C(O)c1ccc(C=NN2CCCCCC2)cc1	3907	-1	4	9	2.1	.	3
COc1cc(C2NC(=O)NC(C)=C2C(=O)OC(C)(C)C)ccc1OCC(=O)O (stereo not drawn)	11293	3	10	5	4.7	.	-42
COC(=O)C1=C(C)N(Cc2ccccc2)C(=NCc2ccc(OC)cc2)NC1c1cccc(F)c1 (stereo not drawn)	.	-11	-10	8	-8.8	.	.
COC(=O)c1ccc(OC(=O)c2ccco2)cc1	4780	.	.	.	.	-6	-29
COC(=O)C1=C(c2ccc(S(C)(=O)=O)cc2)CC2CCC1N2C(=O)NCc1cccc2ccccc12 (stereo not drawn)	.	-10	4	5	3.8	.	.
N#CC1C(=O)NC(N2CCN(c3ccccc3)CC2)=NC12CCCCC2 (stereo not drawn)	9151	0	16	10	5.9	8	-3
COc1ccc(-c2nnc(SCC(=O)Nc3cccc(Cl)c3)o2)cc1	?	-10	3	12	15	5	-61
COc1ccc(CNC(=O)c2ccc(Br)cc2)cc1	.	2	.	.	11	6	.
Cc1ccc(N(CC(=O)NC2CCCC2)C(=O)c2nsc(Cl)c2Cl)cc1	3945	0	5	2	0.3	6	-10
O=C(O)c1cccnc1SC1CC(=O)N(c2ccccc2)C1=O (stereo not drawn)	4882	5	0	-5	9.6	0	-5
Cc1c(C=N)c(O)n(C)c(=O)c1C#N	3437	1	-10	-5	2.3	-5	-24
O=C(CCN1C(=O)c2ccccc2C1=O)NCc1cccc(Cl)c1	4034	-3	-4	-6	5.5	-11	-23
CC1=C(C(=O)O)N2C(=O)C(NC(=O)c3ccn(C)n3)C2SC1 (stereo not drawn)	4653	3	.	.	4.2	4	-9
CCOc1ccccc1-n1c(SCC(=O)NC(C)CC)nnc1-c1ccoc1C (stereo not drawn)	5046	-1	.	.	0.0	-8	1
COC(=O)CCN(c1ccccc1)S(=O)(=O)c1cc(-c2cc(C)no2)ccc1C	5693	7	5	6	6.5	0	-19
CCCCN(C(=O)c1cnc(C)cn1)c1c(N)n(CCC)c(=O)[nH]c1=O	?	-4	1	-5	0.0	.	.
CCCS(=O)(=O)c1nc(S(=O)(=O)c2ccc(C)cc2)c(NCCCN2CCOCC2)s1	3001	6	5	8	2.2	-3	-8
O=C(NCCCN1CCOCC1)/C(=C/c1cccs1)NC(=O)c1ccccc1	5782	5	-9	-2	1.0	-5	-10

# Remaining list, next part:
compound	Bead autofluor	ugtP null kill	Mtb hypoxia rep	Mtb hypoxia rep growth	Sa RN4220 lethal	BJeLR lethal	PrP UTR inh
COC(=O)c1sccc1NC(=O)CSc1nnnn1-c1ccccc1C	?	-9	1	13	3.1	-3	-14
CCC1=C(OC(=O)N(CC)CC)N2C(=O)OC(=NCCOC)[C@]2(Cc2ccccc2)C2C1=CCC1C(=O)N(CC)C(=O)C12 (stereo partly drawn)	.	1	11	5	4.9	.	.
CCc1nnc(NC(=O)CCC(=O)N2CCN(c3cc(Cl)ccc3C)CC2)s1	5149	3	13	7	2.8	-12	-4
O=C(N/N=C/c1cccs1)c1cc(-c2ccncc2)nc2ccccc12	2135	.	.	.	.	56*	-1
O=C(CN1CC[n+]2c(-c3cccs3)csc21)c1ccc(Br)cc1	2345	14	2	0	-2.1	-2	-11&16
COc1cccc(NC(=O)Cn2nnc(-c3ccccc3N)n2)c1	9020	7	1	5	-0.5	12	-26
CN1CCN(S(=O)(=O)c2ccc(NC(=O)C(C)(C)C)cc2)CC1	22681*	3	15	7	6.7	-4	-2
Cc1nc(NC(=S)NC(=O)COc2ccccc2Cl)ccc1Br	2468	4	1	0	4.9	-21	-9
COc1ccc(NC(=O)CCC(=O)NN=Cc2cn(C)nc2C)cc1	.	10	-3	10	3.0	.	.
CCN1CCN(C2=CC3=CC(=C(C#N)C#N)CCC3CC2)CC1 (stereo not drawn)	30604*	2	-214	2	4.0	.	-35
Cc1sc(N/N=C/c2cccnc2)nc1-c1ccc(Cl)cc1	8442	.	.	.	.	-15	-35
O=C(Nc1ccc(NC(=O)C2CC2)cn1)c1ccccc1Cl	4659	2	7	10	1.3	9	-43
O=C(Cn1cnc2ccc(Cl)cc2c1=O)NC1CCS(=O)(=O)C1 (stereo not drawn)	4146	3	14	7	0.1	.	6
O=C(COc1cccnc1[N+](=O)[O-])Nc1ncc(Cl)cc1Cl	2948	7	7	-1	4.0	.	-38
CCOC(=O)CSC1=Nc2ccccc2C2=NC(CC(=O)NCc3ccccc3)C(=O)N12 (stereo not drawn)	3563	0	3	8	0.5	-3	1
CCOC(=O)C1=C(CN2CCN(CCC#N)CC2)NC(=O)NC1c1ccc2c(c1)OCO2 (stereo not drawn)	4314	4	-6	4	0.7	-1	-10
O=C(NNC(=S)NC1CCCCC1)c1ccc2c(c1)OCO2	9682	6	3	0	4.5	-8	-17
COCCNC(=O)[C@H](CSCc1ccccc1)N1Cc2ccccc2C1=O	5255	5	3	1	2.2	12	-6
COc1cc(CN2CCNC(=O)C2CC(=O)NCCCC2CCCC2)cc(OC)c1 (stereo not drawn)	5446	.	.	.	.	4	0
COc1cc([N+](=O)[O-])cc(C=NNC(=O)C2COc3ccccc3O2)c1O (stereo not drawn)	.	11	9	0	4.8	.	.
O=C(NCc1ccccc1)c1ccc(OC2CSC2)cc1	3276	19	18	11	-0.8	3	-30
COc1ccc(-c2nc(CS(=O)CC(=O)N3CCCC3)c(C)o2)cc1 (stereo not drawn)	5246	2	11	11	-11	1	-13
CCc1cc2c(=O)c(-c3ccc4c(c3)OCCO4)coc2cc1OC(=O)c1ccco1	9248	-5	0	0	0.2	5	-65
O=C(Cn1cnc2ccccc21)N/N=C/c1cccs1	2408	.	.	.	.	-4	-25
CCn1cc(CN2CCCC(C(=O)Nc3cccc(-n4cccn4)c3)C2)c(C)n1 (stereo not drawn)	6321	-1	-5	5	-6.1	2	-13

# Other records follow.
compound	Bead autofluor	ugtP null kill	Mtb hypoxia rep	Mtb hypoxia rep growth	Sa RN4220 lethal	BJeLR lethal	PrP UTR inh
Cc1nc2nc(-c3ccccc3)nn2c(C)c1Cl	2363	9	.	.	-0.9	2	-56
CC(=O)OCC1=C(C(=O)O)N2C(=O)[C@@H](NC(=O)CSc3ccncc3)[C@H]2SC1	6128	99*	.	.	100*	.	-9
CC(C)(C)n1nc(C2CC2)cc1NC(=O)Nc1ccc(Cl)cc1	3177	.	.	.	.	9	1
Clc1nc(Nc2ccccc2)nc(Nc2ccccc2)n1	7723	-12	-7	4	1.1	5	-11
Cc1cc(S(=O)(=O)NCC(C)C)ccc1OCC(=O)N1CCOCC1	3940	-7	.	.	0.8	4	-6
Cc1csc(SCCn2c(N3CCCC3)nc3c2c(=O)[nH]c(=O)n3C)n1	2436	18	20	3	15	12	-6
CCOC(=O)CNC(=O)Cn1cnc2c(nnn2-c2ccc(OC)cc2)c1=O	3651	6	21	18	1.5	2	.
COc1ccc(C(=O)CNc2ccccc2CO)cc1	4413	0	12	10	2.8	2	-83
Cc1ccc(NC(=O)Cn2ccc([N+](=O)[O-])n2)cc1C	4830	6	0	17	7.1	7	-18
CC(C)[N+](C)(CCC(C(N)=O)(c1ccccc1)c1ccccc1)C(C)C	6109	4	9	9	5.4	8	-14
CCNc1cc(N2CCCC2)ccc1[N+](=O)[O-]	2451	.	.	.	.	-5	-15
COc1ccc(CNS(=O)(=O)c2cc(Br)cc3c2N(C(C)=O)C(C)C3)cc1 (stereo not drawn)	5604	2	-6	5	-0.4	-8	-13
O=C(CN1CCOCC1)Nc1nc2ccc(Cl)cc2s1	4286	-5	-5	1	1.4	-1	-22
Cc1ccc2nc(N3CCOCC3)c(C=O)cc2c1	3071	-7	1	3	4.8	-12	-29
COC(=O)c1cc(O)c(O)c(O)c1	3514	6	20	4	9.7	-1	-24
COC(=O)/C(NC(C)=O)=C(\C)c1ccc(Cl)cc1	17341*	-13	-11	7	-5.3	-5	-9
CCCN1Cc2cccc(C(=O)NC(CC(=O)OCC)c3ccc(C)cc3)c2C1=O (stereo not drawn)	2635	-2	9	8	9.7	6	-21
CC(NC(=O)c1ccc(OC2CCN(S(=O)(=O)N(C)C)CC2)cc1)C1CC1 (stereo not drawn)	4193	-3	10	8	3.7	13	-7
O=C1COc2ccc(C(=O)CSc3nc4ccccc4c(=O)n3-c3ccc(Cl)c(Cl)c3)cc2N1	4069	7	-6	-3	3.1	4	-34
Cc1ccc(S(=O)(=O)CC(N)=O)cc1	7020	6	5	4	5.8	0	-18
CC1(c2nnc(Cc3ccccc3)o2)CC(c2ccc(Cl)cc2)=NO1 (stereo not drawn)	3114	4	4	-2	0.6	-6	10
Cn1c(N)c(C(=O)COC(=O)CC2CC3CCC2C3)c(=O)n(C)c1=O (stereo not drawn)	4394	7	13	-2	5.1	5	-15
COc1ccc(C(=O)OCC[N+]2(C)CCCCC2)cc1	4578	4	8	5	0.3	1	-14
Cc1ccc(S(=O)(=O)N2CCN(c3ncnc4sccc34)CC2)cc1C	6119	0	10	1	8.1	.	-7
CC(CCc1ccccc1)NC(=S)NC(=O)c1ccco1 (stereo not drawn)	3229	2	6	-1	8.1	0	-12

# Quoted at random: 3 records from the list
compound	Bead autofluor	ugtP null kill	Mtb hypoxia rep	Mtb hypoxia rep growth	Sa RN4220 lethal	BJeLR lethal	PrP UTR inh
Cc1nc2nc(-c3ccccc3)nn2c(C)c1Cl	2363	9	.	.	-0.9	2	-56
CCn1cc(CN2CCCC(C(=O)Nc3cccc(-n4cccn4)c3)C2)c(C)n1 (stereo not drawn)	6321	-1	-5	5	-6.1	2	-13
COc1ccc(OC)c(N(CC(=O)NC2CCCCCC2)S(=O)(=O)c2ccc(C)cc2)c1	6146	-10	-6	-2	-1.8	7	-9

# (more compounds)
compound	Bead autofluor	ugtP null kill	Mtb hypoxia rep	Mtb hypoxia rep growth	Sa RN4220 lethal	BJeLR lethal	PrP UTR inh
Cc1cccc(/C=N/NC(=O)c2ccc(NC(=O)c3ccc(F)cc3)cc2)n1	3676	.	.	.	.	-2	-7
COc1ccc(CCNC(=O)c2c(C)nc3ccccn23)cc1	4376	4	.	.	6.6	.	-56
Cc1ccc(S(=O)(=O)NC2CCCCC2)c(C)c1NS(C)(=O)=O	3232	5	8	6	3.4	0	-3
CN1CCN(S(=O)(=O)c2ccc(NC(=O)c3ccc([N+](=O)[O-])cc3)cc2)CC1	4184	14	5	7	1.6	-11	-15
CCOC(=O)/C(C#N)=C/C1=C(N2CCOCC2)C(C)(C)OCC1	5279	10	11	11	3.5	-8	-39
Cc1ccc(NC(=O)C2Cc3ccccc3O/C2=N\O)cc1C (stereo not drawn)	3947	.	.	.	.	3	-36
Cc1c(N(C(=O)c2ccccn2)C2(C(=O)NC3CCCCC3)CCCCC2)c(=O)n(-c2ccccc2)n1C	3370	23	5	-3	8.5	2	-22
COc1ccc(C(=O)c2cc([N+](=O)[O-])ccc2N2CCOCC2)cc1	2268	-1	-2	-1	-2.0	59*	83*
C=C(C)Cn1c(SCC(=O)NCc2ccco2)nc2sc3c(c2c1=O)CCC3	3928	4	4	-3	-0.7	-11	-6
N#C/C(=C/c1ccc(N2CCCCCC2)o1)c1cccc(F)c1	28830*	1	17	16	-0.7	8	-237
